# HPGD inh – HPGD (human) dehydrogenase inhibition; purified HPGD, NADH fluorescence kinetic, PGE2 substrate; Potency, µM, for the others: at the highest dose activity change, negative = inhibition, most hits filed as inhibitors; 150,000 compounds, 4.3% hits; AID 894; P15428; active = well fitted inhibition curve with a large enough effect (not every such curve was filed as active); inconclusive = small, poorly fitted or top-dose-only effect, or another doubt; inactive = no such curve, though single readings can be large or run the other way;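 note: top concentration of the series not given in the record; plate controls included wells without enzyme; inactives centre near -10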
# Target sequence (P15428 whole entry, looked up): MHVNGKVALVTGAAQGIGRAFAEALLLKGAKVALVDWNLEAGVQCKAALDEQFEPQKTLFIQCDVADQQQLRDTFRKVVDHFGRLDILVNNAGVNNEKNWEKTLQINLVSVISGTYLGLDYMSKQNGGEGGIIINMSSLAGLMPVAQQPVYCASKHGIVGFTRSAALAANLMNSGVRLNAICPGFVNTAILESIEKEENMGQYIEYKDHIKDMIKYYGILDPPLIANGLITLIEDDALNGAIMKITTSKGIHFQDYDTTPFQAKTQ
#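 20 nM HPGD preincubated 15 min at room temperature with compound in 50 mM Tris-HCl pH 8, 0.01% Tween 20. Started with 1 mM NAD+ and 30 uM prostaglandin E2; NADH fluorescence (360/450 nm) read 5 times over 30-s intervals, last minus first.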
# * = called active by the depositor; ? = inconclusive; & = joins results of further samples. % is set by controls: 0 for no effect and ±100 for the full control effect; potency is the fitted concentration of half-maximal effect. Only part of the results is shown; the hit share may differ from the screen's.
SMILES,HPGD inh
COc1ccc([N+](=O)[O-])cc1/C=N/NC(=O)CNC(=O)C(c1ccccc1)c1ccccc1,-18%
COC(=O)C1=C(C(=O)OC)[C@@H]2Nc3ccccc3[C@@]23C[C@@H](C(=O)OC)N(C(C)=O)C3=N1,1%
CC1CN(c2nc3c(c(=O)n(Cc4ccc(Cl)c(Cl)c4)c(=O)n3C)n2C)CC(C)O1 (stereo not drawn),?
O=C(Cn1cnc2ccccc2c1=O)Nc1cccc(-c2nnc3n2CCCCC3)c1,-12%
CCn1c(SCC(=O)Nc2oc(-c3ccccc3)c(-c3ccccc3)c2C#N)nnc1-c1ccco1,-5%
CN(c1ccccc1)S(=O)(=O)c1cccc(NC(=O)Nc2ccc(Cl)cc2C#N)c1,?
NC(=O)CSc1nnc(-c2ccncc2)n1-c1ccc(Cl)cc1,-8%
CN(C)S(=O)(=O)c1cc(NC(=O)CSc2nn(-c3ccc(Cl)cc3)c(=S)s2)ccc1Cl,-9%
COc1cc(NS(=O)(=O)c2ccc3c(c2)n(C)c(=O)n3C)cc(OC)c1,-5%
CN1CCN(c2ccc([N+](=O)[O-])cc2C(=O)c2ccc(Cl)cc2)CC1,-10%
CCOC(=O)Cn1c(-c2cccnc2Cl)nc2ccccc21,-4%
CC(C)c1ccc(NC(=O)Nc2cc3sccc3n2C)cc1,-11%
O=C(NCc1ccccc1)c1ccc(S(=O)(=O)C(F)F)cc1,-10%
Cc1c(CCC(=O)O)c(=O)oc2cc(O)ccc12,?
Cc1ccc(C)c(SCC(=O)NC(=O)NCc2ccccc2)c1,-15%
Cc1c(C(=O)NN)nc2ccccn12,-12%
c1cnc(SCCCOc2ccc3ccccc3c2)nc1,-14%
Cc1nc(NCCCn2ccnc2)c2oc3ccccc3c2n1,-26%
O=C(CC1Nc2ccccc2NC1=O)NC1CCCCC1 (stereo not drawn),-16%
O=C(NC1CS(=O)(=O)CC1NCc1ccccc1)c1ccccc1 (stereo not drawn),-9%
CC(C)[C@H](NS(=O)(=O)c1ccccc1)C(=O)OCC(=O)Nc1ccc2c(c1)OCO2,0%
CN(Cc1ccccc1)C(=O)c1cc2ccccc2o1,?
CCN(CC)C(=O)CC(c1ccccc1)c1ccco1 (stereo not drawn),16µM*
COc1ccc(/C=N/NC(=O)c2ccc(Br)cc2)cc1Cn1cc(Cl)cn1,?
C#CCn1cc(/C=N/NC(=O)COc2cccc3cccnc23)c2ccccc21,-21%
CN(c1cccc(NC(=O)c2ccccc2N(C)S(C)(=O)=O)c1)S(C)(=O)=O,-2%
COc1ccc(C2CC(c3cccc(OC)c3)n3nc(N)nc3N2)cc1 (stereo not drawn),-10%
COc1c(-c2coc3cc4c(cc3c2=O)CC(OC(C)=O)C(C)(C)O4)ccc2c1C=CC(C)(C)O2 (stereo not drawn),-8%
O=C(CN1CCSC1=NCc1ccccc1)c1ccc(Cl)c(Cl)c1,-14%
Cn1c(=O)c2c(nc(NC3CCCCC3)n2CC(=O)C23CC4CC(CC(C4)C2)C3)n(C)c1=O,-7%
Cc1ccc(NC(=O)C(OC(=O)c2ccc(F)cc2)c2ccccc2)cc1Cl (stereo not drawn),-22%
CCOC(=O)C(=NC(C)(C)C)NNc1cc(Cl)ccc1Cl,-17%
CC(=O)Nc1ccc(Nc2ncnc3c2cnn3-c2ccccc2)cc1,?
O=C(Nc1ccc(F)cc1F)c1ccco1,-4%
Cc1ccc(-n2c(C)cc(=O)cc2C)c(C)c1,-6%
COC(=O)C1CCN(Cc2ccc(C)cc2)CC1,2%
Cc1cccc(NC(=O)c2ccccc2[N+](=O)[O-])n1,-8%
Cc1ccc(-c2ccc(OCC(=O)N3CCOCC3)cc2)cc1,?
COc1cc2c(cc1NC(=O)COC(=O)CNS(=O)(=O)c1ccc(C)cc1)oc1ccccc12,?
Cc1ccc(C(=O)OCC(=O)c2ccc(Cl)s2)s1,16µM*

# Reprinted from the part before: six compounds, followed by the next part.
SMILES,HPGD inh
Cc1ccc(-n2c(C)cc(=O)cc2C)c(C)c1,-6%
COC(=O)C1CCN(Cc2ccc(C)cc2)CC1,2%
Cc1cccc(NC(=O)c2ccccc2[N+](=O)[O-])n1,-8%
Cc1ccc(-c2ccc(OCC(=O)N3CCOCC3)cc2)cc1,?
COc1cc2c(cc1NC(=O)COC(=O)CNS(=O)(=O)c1ccc(C)cc1)oc1ccccc12,?
Cc1ccc(C(=O)OCC(=O)c2ccc(Cl)s2)s1,16µM*
COc1ccc(NC(=O)c2cccc(S(=O)(=O)N3CCOCC3)c2)cn1,-3%
CCC1(CC)Cc2ccccc2C(=C(C#N)C#N)N1,-3%
Clc1ccc2c(NCc3ccco3)ncnc2c1,-25%
Cc1nn(CCO)c2c1C(=O)CCC2,2%
Cc1ccc(Cl)cc1N1CCN(Cc2nc3ccsc3c(=O)[nH]2)CC1,-4%
Cc1n[nH]c(=O)nc1N/N=C/c1ccc(O)c([N+](=O)[O-])c1,-17%
COc1ccc(OC)c(NC(=O)COC(=O)c2c3c(nc4ccccc24)CCCC3)c1,-9%
Cc1cccc(C)c1OCCn1nc(C(=O)O)c2ccccc2c1=O,-20%
Cc1cccc(OCC(=O)Nc2ccc(C(=O)NCc3cccnc3)cc2)c1,-18%
COc1ccc(S(=O)(=O)n2ccc(C(C)Oc3ccc(-c4ccccc4)c(F)c3)n2)cc1 (stereo not drawn),-14%
O=C(c1ccc2c(c1)OCCO2)C1CCN(C(=O)c2ccc(F)cc2)CC1,-10%
Cc1cc(NC(=O)Nc2ccc(F)c(Cl)c2)no1,-7%
COc1ccccc1-n1nnnc1SCc1ccccc1,-12%
Cc1ccc(N2Cc3ccccc3OC(C)C2=O)cc1 (stereo not drawn),-13%
Oc1ccc(-c2n[nH]c(=S)n2-c2ccc3c(c2)OCCO3)cc1,20µM*
C(=N\Nc1ncnc2sc3c(c12)CCC3)/c1ccncc1,-18%
Cc1ccc(-c2noc(CN3CCN(c4ccccc4F)CC3)n2)cc1,-14%
CCOC(=O)N1CCN(S(=O)(=O)c2ccc(C(=O)NNc3nc4ccc(Cl)cc4s3)cc2)CC1,-25%
COCCn1c(C)cc(/C=C2\NC(=S)N(C)C2=O)c1C,20µM*
CCCCNC(=S)N(C)/N=C/c1c(C)[nH]c2ccccc12,-6%
COc1ccc(CC(=O)NNc2ncnc3c2cnn3-c2ccccc2)cc1,-17%
Cc1ccc(C)c(N2CCN(c3ncnc4c3cnn4-c3ccccc3)CC2)c1,?
Cc1cc(=O)oc(C)c1C(=O)NCCc1ccccc1,-6%
Cn1c(=O)c2c(nc(N3CCOCC3)n2CC(=O)C23CC4CC(CC(C4)C2)C3)n(C)c1=O,-9%
COc1ccc(C2SCC(=O)N2c2c(C)n(C)n(-c3ccccc3)c2=O)cc1OC (stereo not drawn),-4%
CCC(=O)N(c1ccc(F)cc1)C1C=CS(=O)(=O)C1 (stereo not drawn),-5%
COc1ccc(CCn2c(N)c(C(=O)NCc3ccco3)c3nc4ccccc4nc32)cc1OC,?
CN1C(=O)N(C)C2(c3ccccc3)N(C)C(=O)NC12c1ccccc1 (stereo not drawn),-10%
COCC(=O)Nc1nc2n(n1)C(c1ccc(OC)cc1)CC(c1ccc(OC)cc1)N2 (stereo not drawn),-26%
COc1cccc(C(=O)Nc2ccc(N3CCN(Cc4ccccc4)CC3)cc2)c1,-11%
CCOC(=O)N1CCC(NS(=O)(=O)c2ccc3c(c2)OCC(=O)N3)CC1,-3%
COc1ccc(CNC(=O)c2ccc(NS(=O)(=O)c3c(C)noc3C)cc2)cc1,-6%
CC(C)(C)C(=O)Nc1nc(C2CCCN2S(=O)(=O)c2ccc(Cl)cc2)cs1 (stereo not drawn),-19%
CC1CN(S(=O)(=O)c2ccc(Cl)c(C(F)(F)F)c2)CC(C)O1 (stereo not drawn),-6%
O=C(c1cccn2c(=O)c3cc4ccccc4cc3nc12)N1CCN(c2ccccc2)CC1,-10%
Cc1c(NS(=O)(=O)c2cccs2)c(=O)n(-c2ccccc2)n1C,-1%
COCCCNC(=S)NC1CC2CCCC(C1)N2Cc1cccs1 (stereo not drawn),-1%
Cc1nc(CSc2nnc3scc(-c4ccccc4)n23)cs1,-10%
O=C1C(Cl)=C(N2CCN(Cc3ccccc3)CC2)C(=O)N1c1ccccc1,-7%
CC(=O)c1ccc(NC(=O)COC(=O)c2ccccc2Sc2ccccc2C#N)cc1,?
COC(=O)N/N=C/c1ccc(-c2cc(Cl)cc(Cl)c2)o1,-17%
COc1ccc(CCNS(=O)(=O)c2ccc3c(c2)oc(=O)n3C)cc1OC,-7%
COc1ccc2nc(-c3ccccc3)cc(OC)c2c1,-13%
CCOC(=O)c1c(NC(=O)c2ccoc2C)sc2c1CCC2,?
NC(=O)C1(N2CCCCC2)CCN(C(=S)Nc2ccc(F)cc2)CC1,-12%
Cc1cc(NC(=O)CCN2C(=O)c3ccccc3C2=O)no1,-10%
CC(C)CNC(=S)NNC(=O)c1ccco1,-14%
CCC(=O)Nc1ccc(/C(C)=N\NC(=O)c2ccc(OC)cc2)cc1,1%
Cc1ccc2cc(CCNC(=O)C(C)C)c(=O)[nH]c2c1,-16%
Cc1nc2ncnn2c(C)c1CCC(=O)Nc1ccc(S(=O)(=O)N2CCCCCC2)cc1,16µM*

# The last 7 records of the section before lead into the next.
SMILES,HPGD inh
CCOC(=O)c1c(NC(=O)c2ccoc2C)sc2c1CCC2,?
NC(=O)C1(N2CCCCC2)CCN(C(=S)Nc2ccc(F)cc2)CC1,-12%
Cc1cc(NC(=O)CCN2C(=O)c3ccccc3C2=O)no1,-10%
CC(C)CNC(=S)NNC(=O)c1ccco1,-14%
CCC(=O)Nc1ccc(/C(C)=N\NC(=O)c2ccc(OC)cc2)cc1,1%
Cc1ccc2cc(CCNC(=O)C(C)C)c(=O)[nH]c2c1,-16%
Cc1nc2ncnn2c(C)c1CCC(=O)Nc1ccc(S(=O)(=O)N2CCCCCC2)cc1,16µM*
O=S(=O)(c1ccc(Cl)nc1)N(Cc1ccccc1)Cc1ccccc1,-7%
O=C(Nc1ccccn1)c1ccc(Br)c(S(=O)(=O)N2CCCCC2)c1,-29%
Cc1ccc2cccc(OC(=O)c3ccc4c(c3)OCCO4)c2n1,2%
CC(=O)Nc1cc2c(=O)n(Cc3ccccc3)c(C)nc2cc1N1CCOCC1,-11%
CN(C)CCNC(=S)Nc1ccc(Br)cc1,1%
Cc1cccc(C)c1NC(=O)CS(=O)CC(=O)NCCCc1ccccc1 (stereo not drawn),-8%
CCc1cc2c(SCC(=O)Nc3ccc(Cl)cn3)ncnc2s1,-9%
CCN(CC)C(=O)c1cnn(-c2ccccc2)c1NC(=O)c1cccc(F)c1,3%
COc1ccc(NC(=O)Cc2ccccc2)cc1,-27%
CC(Sc1nc2cc(Cl)ccc2s1)C(=O)Nc1cccc(S(=O)(=O)N2CCOCC2)c1 (stereo not drawn),-15%
CCOCCCNC(=O)C1CCN(S(=O)(=O)CC)CC1,2%
CO/N=C(\C(=O)N[C@@H]1C(=O)N2C(C(=O)O)=C(COC(C)=O)CS[C@H]12)c1csc(N)n1 (stereo in doubt),-1%&-14%
Cc1nn(C)c(C)c1/C=C1/SC(=S)NC1=O,-29%
CCn1c(SCc2ccc(C)cc2)nnc1-c1cnccn1,-15%
c1ccc(Cn2nnc3c(Nc4ccc5c(c4)OCO5)nc(C4CC4)nc32)cc1,?
Cc1cc(C)cc(-n2c(SCC(=O)NCc3ccc4c(c3)OCO4)nc3ccccc3c2=O)c1,-11%
Cc1cc(C)nc(SCc2nnc(SCc3ccc([N+](=O)[O-])cc3)n2Cc2ccco2)n1,-5%
Cc1noc(C)c1CSc1nnc(-c2cc(Cl)ccc2Cl)n1N,-15%
O=C(O)c1cnn(-c2ccccc2)c1-c1ccccc1,0%
CCCc1cc(C(=O)Cc2nc3ccccc3s2)c(O)cc1O,?
Cc1ccccc1N1CCN(C(=O)CN2C(=O)c3ccccc3C2=O)CC1,-1%
O=C(NCc1ccco1)c1ccc(CNc2c(N3CCCCC3)c(=O)c2=O)cc1,14µM*
CCOc1ccc(N(CC(=O)NC(C)CC)S(C)(=O)=O)cc1 (stereo not drawn),-9%
N=c1ccn(Cc2cccc(Cl)c2)cc1,-6%
CN(C)CCCCNC(=O)c1ccc(-n2c(=O)c(=O)[nH]c3ccccc32)cc1,-10%
COc1cccc(-c2nc3cc(C)ccc3o2)c1,?
O=C(/C=C/c1ccccc1)NCCC1=CCCCC1,28µM*
COc1cc2c(cc1OC)-c1cc(NC3CCCCC3)nc(=O)n1CC2,-25%
COc1ccc2c(c1OC)C(=O)N(C(C)C(=O)O)C2=O (stereo not drawn),10%
CCn1ncc(Cl)c1C(=O)Nc1ccncc1,-17%
COc1cccc(CNC(=O)CN(C)S(=O)(=O)c2cnc[nH]2)c1,-4%
O=C(CSc1nnc(-c2cccnc2)n1Cc1ccco1)N1c2ccccc2Sc2ccccc21,-8%
COc1ccc2c(=O)c3c(=O)n(-c4ccccc4)c(-c4ccco4)nc3oc2c1,4%
COc1ccc(CN(C(=O)c2cc3ccccc3oc2=O)C2CCCC2)cc1,-1%
O=C(NC1=NCCS1)c1cc(-c2ccc(F)cc2)nc2ccccc12,-6%
CCC(C)NC(=O)c1c(F)c(F)c(F)c(F)c1F (stereo not drawn),-13%
S=c1[nH]c2ccc(Cl)cc2[nH]1,10µM*
O=C(NCc1ccccc1C(F)(F)F)C12CN(Cc3ccccc3)CC1C(c1ccc([N+](=O)[O-])cc1)=NO2 (stereo not drawn),-17%
NC(=O)NC(Cc1ccccc1)C(=O)NCC1(N2CCCCC2)CCCCC1 (stereo not drawn),-8%
O=C(Nc1ccc2c(c1)OCO2)C1CCN(S(=O)(=O)c2cccc3cccnc23)CC1,-9%
CC1(C)OC2OC(COC(=O)c3ccccc3)C3OC(C)(C)OC3C2O1 (stereo not drawn),-6%

# High-throughput results deposited in PubChem BioAssay by National Center for Advancing Translational Sciences (NCATS).
